TRPML1 inh – inhibitors of human TRPML1 channel. Q9GZU1. TRPML1-inducible cells, Ca2+ dye fluorescence, FDSS; active compounds read low; inhibition of EC80 agonist-evoked calcium signal. activity change, negative = inhibition, % (concentration not given with the values). 390,000 tested, 0.02% active. AID 624415; in the data active means activity change below about -50%; inconclusive means about -30% to -50%; inactive means above about -30%;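 note: stimulus is agonist 54-4 at its EC80 concentration; % is set by controls: 0 for no effect and ±100 for the full control effect; the text of the record puts the active cut at -80%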
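TRPML1-DL cells, Tet-induced overnight (~16 h, 37 °C) at 1,500 cells/well, were loaded with Ca8 no-wash dye plus quencher for 45-90 min at room temperature. Compounds were pinned during FDSS kinetic reading; agonist 54-4 at EC80 (4 uM final) then added.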
CtBP-E1A blk – blocks the CtBP interaction with E1A. AlphaScreen GST-E1A/His-CtBP binding, 1536-well; active compounds read low; control for the full effect not named in the record. activity change, % (test concentration not listed). 340,000 tested, 0.49% active. AID 651724; in the data active means activity change below about -65%; inconclusive means about -30% to -65%; inactive means above about -30%; note: % is set by controls: 0 for no effect and ±100 for the full control effect
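GST-E1A and His-tagged CtBP (125 nM each as 5X stock) were preincubated with pin-transferred compound for 2 h at 37 °C in the dark, then glutathione donor and nickel acceptor beads were added for 1 h before AlphaScreen reading.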
D2 PAM – positive allosteric modulators of human D2 dopamine receptor. P14416. DiscoveRx D2 beta-arrestin cells, luminescence, 90 min; 100% = 57 uM dopamine signal. potentiation, % (no concentration beside the values). 360,000 tested, 0.23% active; active = potentiation of 50% or more; inconclusive = 30% to 50%; inactive = 30% or less;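 note: compound concentration not given in the record; tested on top of an EC20 dose of dopamine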
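D2 cells co-treated with compound plus 50 nM dopamine (EC20) for 90 min at 37 deg C to detect potentiation. Beta-arrestin recruitment was read as enzyme-fragment luminescence after 1 h at ambient temperature. Full response was set by 57 uM dopamine.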
TRPV1 potentiator – enhances activation of the human vanilloid receptor TRPV1 | potentiation, % at 8.33 µM | 320,000 tested, 0.02% active | AID 540277 | TRPV1-expressing cells, Fluo-8 calcium influx, capsaicin EC20 potentiation; host cell line not named in the record; control for the full effect not named in the record | Q8NER1; active means potentiation above 80%; inconclusive means 30% to 80%; inactive means below 30%; note: 0% is about no effect
Target sequence (Q8NER1 whole entry, looked up): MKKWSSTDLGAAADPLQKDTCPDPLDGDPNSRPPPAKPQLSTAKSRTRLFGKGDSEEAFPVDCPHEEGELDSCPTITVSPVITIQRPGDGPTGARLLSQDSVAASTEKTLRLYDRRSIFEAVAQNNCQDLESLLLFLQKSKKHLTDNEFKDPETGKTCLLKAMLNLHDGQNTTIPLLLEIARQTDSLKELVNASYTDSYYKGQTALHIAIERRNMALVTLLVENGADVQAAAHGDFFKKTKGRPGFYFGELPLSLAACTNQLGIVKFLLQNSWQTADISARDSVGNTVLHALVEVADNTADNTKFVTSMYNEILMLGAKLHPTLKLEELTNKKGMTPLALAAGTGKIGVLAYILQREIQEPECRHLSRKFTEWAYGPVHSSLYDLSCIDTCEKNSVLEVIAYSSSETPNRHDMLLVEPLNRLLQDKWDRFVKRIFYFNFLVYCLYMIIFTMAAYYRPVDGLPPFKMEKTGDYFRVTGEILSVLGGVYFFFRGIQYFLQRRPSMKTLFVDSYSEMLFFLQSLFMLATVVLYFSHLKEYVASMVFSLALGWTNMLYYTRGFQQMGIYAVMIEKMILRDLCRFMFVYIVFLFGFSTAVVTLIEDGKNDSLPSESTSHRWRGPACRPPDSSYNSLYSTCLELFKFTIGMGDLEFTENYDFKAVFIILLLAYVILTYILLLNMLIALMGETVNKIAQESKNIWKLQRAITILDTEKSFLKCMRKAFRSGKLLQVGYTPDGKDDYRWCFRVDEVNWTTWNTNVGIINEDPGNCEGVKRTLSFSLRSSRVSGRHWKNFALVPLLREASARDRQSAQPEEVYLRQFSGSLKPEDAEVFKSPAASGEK
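TRPV1-expressing cells were cultured overnight at 35.5C and loaded with Fluo-8 calcium dye for 40 to 90 min at room temperature. After a 10 s baseline, compound was added and calcium influx was read kinetically for 3 min (ex 480/em 520 nm).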
Six1-Eya2 inh – inhibitors of human Six1/Eya2 interaction | AlphaScreen GST-Six1/His-Eya2 binding, biochemical; active compounds read low; control for the full effect not named in the record | activity change, % (concentration not given with the values) | 360,000 tested, 0.56% active | AID 651725; in the data active = activity change below about -65%; inconclusive = about -30% to -65%; inactive = above about -30%; note: % is set by controls: 0 for no effect and ±100 for the full control effect
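Six1/Eya2 binding was read as AlphaScreen signal after compounds were pinned into GST-Six1 plus His-tagged Eya2 (5X stock 250/500 nM) in pH 8.0 Tris/NaCl/TCEP buffer, beads added, then incubated 1 h, 37 C, dark.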
TRPML1 ag – activates the human TRPML1 channel. TRPML1-expressing cells, Ca2+ dye fluorescence, FDSS; host cell line not named in the record; reference of the full effect not given here. activation, % (concentration not given with the values). AID 624414. 410,000 tested, 0.12% active; in the data active = activation above about 50%; inconclusive = about 30% to 50%; inactive = below about 30%; note: 0% is about no effect; the text of the record puts the active cut at 80%
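Calcium fluorescence on an FDSS kinetic reader gave the read-out. Tet-induced TRPML1-DL cells were plated overnight, dye-loaded (Ca8 with quencher, 45-90 min, room temperature, dark), then read 110 s after compound addition, and again 110 s after 4uM final 54-4 (EC80).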
An asterisk follows results filed as active; ? = inconclusive; . = no result given; & = joins results of further samples.

structure	CtBP-E1A blk	Six1-Eya2 inh	TRPV1 potentiator	TRPML1 inh	D2 PAM	TRPML1 ag
CC(C)(C)OC(=O)N1Cc2ccccc2C[C@H]1C(=O)NCC(=O)NC1CCCC1	-13	2	0	30	-5	0.1
O=C(Nc1ccc(Cn2cccn2)cc1)c1ccc(COc2ccc(Br)cc2)cc1	9	3	19	-13	-5	-0.4
CCOC(=O)C1CCC(CNCc2ccccc2C)CC1 (stereo unspecified)	-6	11	0	-14	-10	0.9
CC(NC(=O)CN1C(=O)c2ccccc2C1=O)c1ccccc1 (stereo unspecified)	-3	6	-1	-2	-8	0.4
COc1ccc(C)cc1NC(=O)c1ccc(N(C)S(C)(=O)=O)cc1	1	10	16	27	-13	1.3
CCn1c(SCC(=O)OC)nnc1-c1ccccc1	-5	-4	1	-8	-6	-0.1
NC(=O)c1ccc(NC(=O)COC(=O)CC23CC4CC(CC(Br)(C4)C2)C3)cc1	-12	35	.	-7	7	0.5
CCN(CC)CCC(c1cc(OC)c(OC)c(OC)c1)c1c(OC)cc(OC)c2c(C)cc(=O)oc12 (stereo unspecified)	-1	2	-21	1&-1	-23	0.1&-0.7
c1cncc(-c2nnc(-c3ccco3)o2)c1	4	-3	-9	-4	1	-0.4
Nc1n[nH]c2c1C1(CCCC1)Cc1ccccc1-2	-7	0	?	0	-12	1.7

Further entries.
structure	CtBP-E1A blk	Six1-Eya2 inh	TRPV1 potentiator	TRPML1 inh	D2 PAM	TRPML1 ag
CSc1nnc(-c2cccc(C)c2)n1N	-6	1	-1	4	-4	0.6
COc1ccc(-c2nnc(SCC(=O)Oc3ccc(C)cc3)o2)cc1	8	1	2	-6	-7	7.8
Cc1cc(-c2csc(N)n2)c(C)n1-c1ccccc1	.	0	18	-7	-11	0.8
Cn1ccnc1C(O)(c1ccccc1)c1nccn1C	-5	1	?	7	19	-1.1
COc1cc(/C=N/NC(=S)Nc2cccc(C(=O)O)c2)ccc1O	-27	-22	-12	5	-3	2.0
O=C(O)CCCC(=O)Nc1ccc(S(=O)(=O)Nc2nccs2)cc1	-2	2	4	-8	-6	-1.6
CCOc1ccc(N=Cc2ccccc2O)cc1	0	-3	.	-21	4	0.4
Cc1ccc(C)c(C(O)c2ncc(-c3ccc(F)cc3)[nH]2)c1 (stereo unspecified)	-14	-5	.	1	-20	0.0
C=CCn1c(SCC(=O)N(CCOC)c2c(N)n(CCCC)c(=O)[nH]c2=O)nnc1-c1ccc(Cl)cc1	-9	-6	0	11	-2	1.5
O=C(CNS(=O)(=O)c1ccc(Br)s1)N1CCCC1	7	5	-3	2	-11	0.0

Following part.
structure	CtBP-E1A blk	Six1-Eya2 inh	TRPV1 potentiator	TRPML1 inh	D2 PAM	TRPML1 ag
Cc1ccc(OCCN2CCC2(C)C(=O)NCc2cccc3ccccc23)cc1 (stereo unspecified)	0	3	.	47	-18	4.1
CC1C(Br)C(=O)NC(=O)N1Cc1ccccc1 (stereo unspecified)	-9	5	-5	-21	10	2.5
COc1cccc(/C=C2\SC(=S)N(CCCC(=O)Nc3cccc(C(=O)O)c3)C2=O)c1	-12	-12	.	-2	-13	-0.2
O=C(c1ccc(S(=O)(=O)Nc2ccccc2Cl)cc1)N1CCOCC1	5	2	-1	14	-12	-0.6
O=C(c1ccc2c(=O)n(Cc3ccco3)c(=S)[nH]c2c1)N1CCN(Cc2ccccc2)CC1	-14	-16	1	-1	-7	-0.1
C=CCc1cc(C=O)cc(OC)c1OCc1ccc(C(=O)O)cc1	9	-1	0	7	0	0.9
COc1ccc(CN2C(=O)c3ccccc3C2=O)cc1	-8	4	-8	-3	-3	0.3
O=C(NCc1nc2ccccc2[nH]1)C1=C[C@H](c2ccc(C(F)(F)F)cc2)C[C@H](OCCCCO)O1	-13	3	.	9	-14	0.9
COc1ccc(OC)c(C2CC(=O)N3CN(c4ccc(C)c(Cl)c4)CSC3=C2C#N)c1 (stereo unspecified)	-4	-1	?	-7	-8	0.0
NC(=O)c1ccc(NC(=O)CCN=C2NS(=O)(=O)c3ccccc32)cc1	0	-5	6	-2	-3	-0.7

Brought forward from above: 2 compounds, followed by the next part.
structure	CtBP-E1A blk	Six1-Eya2 inh	TRPV1 potentiator	TRPML1 inh	D2 PAM	TRPML1 ag
COc1ccc(OC)c(C2CC(=O)N3CN(c4ccc(C)c(Cl)c4)CSC3=C2C#N)c1 (stereo unspecified)	-4	-1	?	-7	-8	0.0
NC(=O)c1ccc(NC(=O)CCN=C2NS(=O)(=O)c3ccccc32)cc1	0	-5	6	-2	-3	-0.7
O=C(NCCCN1CCOCC1)C(=O)NCc1ccco1	.	15	1	15	0	0.1
Cc1nn(CC(=O)N2CCN(Cc3ccccc3)CC2)c(=O)c2ccccc12	0	2	2	11	-21	1.4
Cc1c(Cl)cccc1NC(=O)NCc1ccccn1	0	-2	-8	21	-14	-0.1
O=C(CSC1=NS(=O)(=O)c2cc(F)ccc2N1)NCc1ccccc1Cl	5	2	5	14	10	-0.6
COc1ccc(Cl)cc1NC(=O)CSc1nc(NS(=O)(=O)c2ccc(C)cc2)cc(=O)[nH]1	-10	8	3	-8	-4	-0.7
O=C(O)c1ccccc1C(=O)OCC1CCC(=NO)CC1 (stereo unspecified)	3	-25	.	1	-4	-0.1
CCc1cc(C(=O)N2CCCc3ccccc32)sc1C	2	1	.	2	0	-0.2
CC(C)CNC(=O)COC(=O)c1ccc2c(c1)C(=O)N(Cc1ccco1)C2=O	0	-11	6	29	4	0.9
COc1ccc(/C=C(\NC(=O)c2ccc(C)cc2)C(=O)Nc2ccc(C(=O)O)cc2)cc1	-1	-9	22	17	-5	-1.3
CN1CC(=O)N/C1=N\C(=O)Nc1ccc2c(c1)N(C)C(=O)CS2	0	-4	11	-6	-2	-0.5

Following part:
structure	CtBP-E1A blk	Six1-Eya2 inh	TRPV1 potentiator	TRPML1 inh	D2 PAM	TRPML1 ag
CCOC(=O)c1[nH]c(C)c(C(=O)Nc2ccc(C)c(Cl)c2)c1C	-1	0	-21	26	-4	1.9
COc1ccc(/C=C2\N=C(C)N(c3ccc(C(=O)O)cc3)C2=O)cc1OC	9	-1	-4	-24	-2	0.0
CC(C)[C@H](NC(=O)c1ccccc1Cl)C(=O)OCC(=O)N1CCCCC1	-8	4	.	-3	16	0.5
Cc1ccc(C)c(-c2cc(C(=O)Nc3sc(C)c(C)c3C(N)=O)c3ccccc3n2)c1	-11	-9	-3	-9	-20	1.3
Cc1cccc2nc(CSc3nc4[nH]ncc4c(=O)n3-c3ccccc3Cl)cc(=O)n12	-4	-7	-6	46	-4	-0.1
CN(C)c1ccc(P(=O)(OCc2ccccc2)C(O)c2ccc(Cl)cc2)cc1 (stereo unspecified)	3	-2	3	-11	-24	-0.2
COc1cccc(NC(=O)Cn2c(=O)n(CCC(=O)NCc3ccco3)c(=O)c3ccccc32)c1	.	-2	7	38	-10	0.6
COc1ccc(-c2noc(CCC(=O)NCCc3ccccc3)n2)cc1	-6	7	10	-6	-3	-1.0
O=C(NCc1ccco1)Oc1ccccc1	2	4	-6	-2	-9	-0.2
CC(NC(=O)NC(N)=O)(C(F)(F)F)C(F)(F)F	6	3	-4	19	7	0.6

Additional records follow.
structure	CtBP-E1A blk	Six1-Eya2 inh	TRPV1 potentiator	TRPML1 inh	D2 PAM	TRPML1 ag
Brc1ccc2nc(-c3ccco3)c(CC3CCCCC3)n2c1	1	-12	.	1	-5	-0.3
CN1C(=O)CC(Sc2ccccc2C(=O)O)C1=O (stereo unspecified)	2	4	-1	14	-4	0.4
CCN(Cc1ccncc1)Cc1ccc(OC)c(OC)c1	5	8	-7	24	-4	1.0
COc1ccc(F)cc1-c1cc(NC=O)c2ncc(-c3cc(OC)c(OC)c(OC)c3)n2c1	?	?	.	.	-10	3.6
CSc1cccc(NS(=O)(=O)c2ccc(C(C)=O)cc2)c1	-12	5	-2	6	-4	1.3
Cn1c(=O)oc2cc(S(=O)(=O)N3CCOCC3)ccc21	-1	2	2	11	21	-0.3
NC(=O)c1ccc(NC(=O)COC(=O)C2(c3ccccc3F)CCCC2)cc1	1	-1	-21	-17	-11	1.2
O=C1CCc2cc(S(=O)(=O)N3CCC(C(=O)Nc4nccs4)CC3)ccc2N1	-2	-5	4	-2	-2	0.0
CCn1c(SCc2ccccc2)nc2cc(OC)c(OC)cc2c1=O	.	-8	-5	37	-14	1.6
COC(=O)[C@H](CCSC)NS(=O)(=O)c1ccccc1Br	-1	-3	-4	1	-5	-0.9

More structures.
structure	CtBP-E1A blk	Six1-Eya2 inh	TRPV1 potentiator	TRPML1 inh	D2 PAM	TRPML1 ag
c1ccc(-c2nc(NCc3cccs3)c3ccccc3n2)cc1	4	2	10	3	-2	-0.2
N#C/C(=C\c1ccc(Cl)cc1)c1n[nH]c(Cn2cncn2)n1	-6	2	-8	-26	-11	0.0
Cc1[nH]c(C)c(S(=O)(=O)N2CCC(C)CC2)c1C(=O)N1CCCC1	-2	2	0	7	-8	2.2
CCOC(=O)c1ccc(CC2S/C(=C(\C#N)C(C)=O)NC2=O)cc1 (stereo unspecified)	0	-2	12	6	-1	0.1
O=C(NCC(=O)N(CC1CCCO1)C(C(=O)NC1CCCCC1)c1ccccc1)c1cccs1 (stereo unspecified)	7	-2	-6	22	0	-0.1
CC(C)n1c(SC2CCOC2=O)nc2ccccc21 (stereo unspecified)	2	0	4	-16	-3	0.0
Cc1ccc(CN(C)c2ccc(S(=O)(=O)N3CCCC3)cn2)cc1	37	8	.	3	-7	1.8
O=S(=O)(Nc1ccc(N=Nc2ccccc2)cc1)c1ccccc1	-2	?	-5	-19	-21	-1.5
CC([NH2+][O-])C(C)(C)NO (stereo unspecified)	6	7	4	39	11	0.1
Cc1ccc(S(=O)(=O)N2CCCOC2CNC(=O)C(=O)NCCCn2ccnc2)cc1 (stereo unspecified)	-16	-25	3	-17	-19	-0.6

Results in D2 PAM, for 2 of the compounds above:
SMILES,D2 PAM
O=C(NCC(=O)N(CC1CCCO1)C(C(=O)NC1CCCCC1)c1ccccc1)c1cccs1 (stereo unspecified),0
CC(C)n1c(SC2CCOC2=O)nc2ccccc21 (stereo unspecified),-3

Other structures
structure	CtBP-E1A blk	Six1-Eya2 inh	TRPV1 potentiator	TRPML1 inh	D2 PAM	TRPML1 ag
CCCC(=O)NC1CCCc2c1cnn2-c1ccc(C)c(C)c1 (stereo unspecified)	.	5	3	-4	-28	-0.6
CN(C)C(=O)c1ccc(NC(=O)COC(=O)CC23CC4CC(CC(Br)(C4)C2)C3)cc1	-16	5	4	-9	-9	1.1
CC(=NCc1ccccc1)c1ccc(O)cc1O	28	-5	.	-6	-18	0.2
Cc1ccc(C)c(S(=O)(=O)N2C(=S)NC(=O)C2CC(C)C)c1 (stereo unspecified)	5	5	4	3	-8	-0.3
C[C@@H](C(=O)N[C@@H](Cc1ccccc1)C(=O)O)n1nnc2ccccc2c1=O	-1	-17	-13	.	-4	.
Cc1ccc(NC(=S)N(CCN2CCOCC2)Cc2cc3cc4c(cc3[nH]c2=O)OCO4)cc1	.	1	0	7	-7	1.3
N#Cc1ccsc1NC(=O)COC(=O)CCCSc1nc2ccccc2s1	-8	-14	14	-7	-23	1.6

Compound activity as filed in PubChem.
